Bfl-1 A1 inh – caspase 3/7 activation in MEF A1-2A-BIM cells, primary screen, A1 inhibitor project, cell-based, luminescence, HTS; Caspase-Glo 3/7 luminescence, 3 h; percent of clofoctol response, vehicle zero; caspase activation, % (concentration not given with the values); 0.066% of 330,000 active; AID 2462, 2010;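 active = over half of replicate activation scores above 10%, or exactly half above 10 with the replicate mean above 10; inconclusive = replicate mean below 10 yet half the replicates above 10; inactive = over half of replicates below 10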;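 note: wells of about 30 µL received 50 nL stock; many hits fall short of the cut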
LANA-H2A inh – blockers of LANA interaction with H2A/H2B – biochemical, FP readout, HTS, primary screen | cell-free LANA-H2A/H2B peptide, fluorescence polarization | inhibition, % (concentration not given with the values) | 0.6% of 320,000 active | Protein LANA1 (Human herpesvirus 8 type P (isolate GK18)), Q9QR71 | AID 2629, 2010; in the data active = inhibition mostly above about 10%, no sharp cut-off; inactive = mostly below about 6.7%;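 note: stock transfer was 7.5 nL into about 10 µL; 0% = median of vehicle wells and 100% = median of positive control wells; one replicate is shown; the record names a cut of 25% in any replicate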
E coli growth – E. coli growth inhibition, primary screen, OD600. 0.21% of 330,000 active. OD600 absorbance (no concentration beside the values). AID 1053175, 2014. Escherichia coli growth, 23 h; stronger effect = lower value;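 active = OD600 absorbance below the run mean of sample wells minus 3.6 SD, in any replicate, cut at about 0.56 in these data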;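 note: stock transfer was 300 nL into about 60 µL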
UCH37 inh – inhibitors of human UCH37 deubiquitinase, primary screen, biochemical, Ub-AMC cleavage, fluorescence; Ubiquitin carboxyl-terminal hydrolase isozyme L5 (Homo sapiens), Q9Y5K5; purified proteasome/UCH37; inhibition, % (test concentration not listed); 0.33% of 330,000 active;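 active = mean of two replicates above 20%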;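 note: 0% = compound-free wells with enzyme and 100% = wells lacking proteasome; stock transfer was 100 nL into about 20 µL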
Target sequence (Q9Y5K5 whole entry, looked up): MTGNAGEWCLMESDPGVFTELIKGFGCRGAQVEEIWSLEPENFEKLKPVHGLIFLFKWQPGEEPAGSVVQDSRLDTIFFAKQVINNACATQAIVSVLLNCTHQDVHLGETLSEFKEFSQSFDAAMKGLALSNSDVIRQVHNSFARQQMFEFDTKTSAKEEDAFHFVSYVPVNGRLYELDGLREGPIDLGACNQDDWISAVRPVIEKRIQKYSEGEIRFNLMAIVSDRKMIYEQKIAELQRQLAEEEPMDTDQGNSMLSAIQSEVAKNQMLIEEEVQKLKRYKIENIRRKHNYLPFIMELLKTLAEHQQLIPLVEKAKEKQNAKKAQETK
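Material: human UCH37 enzyme supplied as purified proteasome complex. Measure: % inhibition of Ub-AMC cleavage fluorescence. Medium: pH 7.4 Tris-HCl (50 mM) with ovalbumin, ATP-MgCl2, DTT. Times: 30 min preincubation with enzyme, 25 min cleavage at room temperature. Detection: AMC fluorescence intensity at 355/460 nm.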
HNF4A DNA FP – change in binding of human HNF4A to DNA, primary screen, biochemical, fluorescence polarization, FITC-DNA | AID 1224865, 2016 | Hepatocyte nuclear factor 4-alpha (Homo sapiens), P41235 | activity change, % at 10 µM | 0.3% of 360,000 active | 1 h; in the data active = activity change above about 30%, passing the limit was not always enough;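 note: controls were the assay level and a saturating level of protein; the project sought stronger binding though the title names inhibitors; some compounds called inactive have numbers as strong as hits; positive values seem to mean higher polarization but the record does not say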
Vif A3G – inhibitors of Vif binding to APOBEC3G peptide, primary screen, biochemical, TR-FRET, GST-Vif 1-94, biotin-A3G peptide, dose response retest (AID 1117319); 0.57% of 260,000 active; TR-FRET GST-Vif / biotin-A3G peptide binding; higher % means a stronger effect; test concentration not given here; strong numbers were not always called active; Virion infectivity factor (Human immunodeficiency virus type 1 group M subtype B (isolate …; inhibition, %, or IC50 in µM where a hit was titrated;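 active = above the screen mean plus three standard deviations and confirmed in dose response; inconclusive = results disagree or hit not tested in dose response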;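 note: Vif residues 1-94 fused to GST binding biotinylated APOBEC3G peptide 110-148; 0% = full assay without inhibitor and 100% = GST in place of GST-Vif; retest series ran down from 100 µM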
B2AR ag – beta2AR agonists driving receptor internalization, primary screen, cell-based, FAP fluorogen, flow cytometry. Am2.2-beta2AR cells; reference of the scale not given here. response, % (test concentration not listed). 0.43% of 340,000 active. AID 504454, 2011;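 active = response above a set limit, near 3 SD of response in nonfluorescent compounds, cut at about 42% in these data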;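 note: stock transfer was 100 nL into about 11 µL; a reference agonist was the positive control; negative values mostly stem from fluorescent compounds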
Target sequence (P07550 whole entry, looked up): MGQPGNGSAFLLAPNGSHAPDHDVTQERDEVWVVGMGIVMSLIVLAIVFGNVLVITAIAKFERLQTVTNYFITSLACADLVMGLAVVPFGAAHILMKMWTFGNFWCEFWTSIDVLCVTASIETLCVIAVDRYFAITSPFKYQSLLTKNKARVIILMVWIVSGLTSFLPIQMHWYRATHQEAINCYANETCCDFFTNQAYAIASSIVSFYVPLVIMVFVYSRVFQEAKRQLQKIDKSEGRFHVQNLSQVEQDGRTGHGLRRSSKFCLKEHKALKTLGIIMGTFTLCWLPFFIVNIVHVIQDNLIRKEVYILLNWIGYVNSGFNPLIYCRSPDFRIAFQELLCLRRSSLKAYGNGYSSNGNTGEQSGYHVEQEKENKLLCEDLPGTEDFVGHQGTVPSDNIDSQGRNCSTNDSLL
* hit, by the source's call; ? = inconclusive; . = no result given; & = joins results of further samples.

canonical_smiles,Bfl-1 A1 inh,LANA-H2A inh,E coli growth,UCH37 inh,HNF4A DNA FP,Vif A3G,B2AR ag
CC(C)C(=O)Nc1c2c(nn1-c1ccc([N+](=O)[O-])cc1)CS(=O)(=O)C2,1.1,1.8,0.676,4.6,-0.3,.,-2.9
Cc1[nH]n(C(N)=S)c(=O)c1N=Nc1cc(C(F)(F)F)ccc1Cl,0.2,-4.2,0.675,2.7,0.0,-0.5%,3.7
Clc1ccc(CON/C=N/c2ncnc3sccc23)c(Cl)c1,0.9,-8.5,.,.,-1.4,-3.6%,-11.8
O=S(=O)(Nc1ccc(Cl)c(Cl)c1)N1CCOCC1,0.3,3.5,0.688,3.6,-1.4,.,1.8
CCCC(C(=O)NC1CCCCC1)N(CC1CCCO1)C(=O)CNS(=O)(=O)c1ccc(F)cc1 (stereo not given),0.2,-0.7,0.709,-0.3,0.1,-1.6%,-1.3
O=C(Nc1ccc(F)cc1)N1CCN(c2ccc3nnc(-c4ccc(F)cc4)n3n2)CC1,1.4,1.3,0.711,0.8,-0.5,-4.6%,4.3
Cc1cc([N+](=O)[O-])c(-c2ccc(/C=N/n3cnnc3)o2)cc1Cl,-1.5,12.3,.,.,-3.9,?,-28.9
C=CCOC(=O)Nc1snnc1C,-0.1,.,0.726,-2.2,-0.8,25.4%,-7.0
Cn1c(CCN2CCCCC2)nc2cc(NS(=O)(=O)c3ccccc3)ccc21,1.0,16.8,0.688,0.6,-1.7,11.1%,-0.1
C=CCn1c(COc2ccc(F)cc2)nnc1SCC(=O)NC1CC1,0.4,-2.3,0.694,1.2,-4.9,-2.6%,-0.8
COc1ccc(Nc2nc(N)c([N+](=O)[O-])c(N3CCCC3)n2)cc1,-0.3,-0.7,0.697,8.7,2.1,-0.5%,-6.7
CC(CCc1ccccc1)NC(=O)COC(=O)c1ccc(S(C)(=O)=O)c([N+](=O)[O-])c1 (stereo not given),-0.2,-3.5,0.708,5.2,2.8,4.7%,29.8
COc1ccc(C(=O)OCc2c(C)noc2C)cc1,1.5,2.7,0.655,-2.4,-0.6,2.4%,-1.5
Cc1cc(=O)oc2cc(OCC(=O)OCC(=O)N3CCC(C)CC3)ccc12,-0.3,4.8,0.626,-102.9,-2.0,-10.7%,2.3
CCn1c(SCC(=O)N2c3ccccc3Sc3ccccc32)nc2c1c(=O)n(C)c(=O)n2C,0.5,-2.1,0.676,1.3,-1.1,2.7%,17.7
O=C(NCc1ccccc1)c1cccc(Br)n1,0.3,-1.9,0.544,0.4,-2.5,?,-9.8
CC(C)C(=O)N1CCN(c2ccccc2NC(=O)c2cc([N+](=O)[O-])ccc2N2CCOCC2)CC1,-0.5,0.3,0.626,7.9,3.0,16.8%,-6.0
COc1ccc(N(CC(=O)N2CCOCC2)S(C)(=O)=O)cc1Cl,-0.3,0.5,0.651,2.6,1.3,.,9.2
CCCC(C(=O)NC1=NCCS1)c1ccccc1 (stereo not given),-0.3,-7.7,0.681,1.6,1.2,-0.5%,17.5
Cn1nc(-c2ccc(C(=O)NCCO)cc2)c2ccccc2c1=O,-0.4,5.9,0.663,4.5,4.9,?,-4.6
CCOC(=O)N1CCN(C(=S)NC(=O)c2ccc(Br)cc2)CC1,0.4,-2.1,0.708,0.2,-0.8,.,-2.9
CC(=O)c1sc(NC(=O)c2oc3ccc(F)cc3c2C)nc1C,-10.0,1.8,0.67,-6.9,8.7,-32.1%,3.2
Cc1cc(C)c(S(=O)(=O)N2CCCOC2CNC(=O)C(=O)NCCC2=CCCCC2)c(C)c1 (stereo not given),-0.7,-7.6,0.693,6.8,1.5,-1.1%,3.4
Cc1cccc(NC(=O)[C@@H]2CCCN2C2=NS(=O)(=O)c3ccccc32)c1C,1.4,-5.1,0.694,1.2,-0.9,-19.3%,-4.3
CCc1ccc(NC(=S)Nn2cnnc2)cc1,-1.6,5.5,0.708,1.4,3.1,-1.0%,3.7
O=C(NCCO)c1ccc(CSc2nc3ccccc3[nH]2)cc1,0.4,-2.4,0.712,4.9,1.5,-4.7%,-17.7
Cc1noc(C)c1COc1ccc(C(=O)N2CCC(C)CC2)cc1,1.4,2.3,0.668,3.0,1.9,-6.2%,-3.4
CCn1nnnc1SCC(=O)c1cccc(OC)c1,-0.3,8.1,0.69,4.4,2.3,-7.5%,-1.5
O=C(CNS(=O)(=O)c1ccc(C(=O)N2CCCCC2)cc1)N1CCCCC1,-0.2,1.3,0.736,1.0,0.5,10.7%,-0.5
O=c1c2ccccc2ncn1CCCSc1ccc(Cl)cc1,-0.1,-2.8,0.663,-0.9,-2.8,0.6%,-5.6
COC(=O)c1sc(N)c(C(=O)OC)c1CSc1nnc(-c2ccccc2Cl)n1C,-0.2,3.7,0.737,3.3,2.8,-5.4%&-9.0%,0.9
O=[N+]([O-])c1ccc(O)c(-c2cc(C(F)(F)F)nc(-c3ccccc3)n2)c1,0.8,-0.6,0.703,2.5,-1.6,-17.3%,47.7*
O=C(c1ccco1)N(CC1CCCO1)c1nc(-c2ccccc2)cs1 (stereo not given),0.0,0.4,0.69,2.0,4.8,2.9%,-15.1
CCc1ccccc1OCc1nc2ccc(S(=O)(=O)N3CCOCC3)cc2[nH]1,-0.1,4.2,0.713,0.7,2.8,-3.4%,-4.8
COc1cc(/C=N/NC(=O)c2cccnc2)ccc1OS(=O)(=O)c1ccc(C)cc1,-0.7,-1.6,.,.,-2.4,-2.1%,2.8
COc1ccc(OC)c(S(=O)(=O)Nc2cc(C)on2)c1,0.8,-4.4,0.711,0.8,2.6,.,0.8
COc1ccc(NC(=O)c2sc3nc(-c4cccnc4)ccc3c2N)cc1OC,0.5,0.9,0.689,3.9,74.5,-8.4%,-1.3
CCOC(=O)C1CCN(Cc2ccc(OCc3ccccc3)cc2)CC1,0.0,1.3,0.688,3.6,-0.1,.,1.6
CCOC(=O)COc1ccc(C(=O)NC2CCCCC2)cc1,0.3,-4.9,0.755,-3.3,2.8,3.3%,6.6
Cc1ccc(S(=O)(=O)NCC(=O)NCC(=O)OCc2c(F)cccc2Cl)cc1,-1.0,-5.4,0.718,4.6,0.1,6.1%,4.4
COc1ccc2c(c1)c1nc3ccccc3nc1n2CC(=O)OC(C)C,0.0,-45.7,0.706,-0.6,-26.6,-3.0%,-22.2
COC(=O)Cn1c(C(F)(F)F)nc2ccccc21,1.0,1.0,0.71,3.4,-4.2,.,3.0
Cc1cccc(C(C#N)c2ccc(Cl)nn2)c1 (stereo not given),0.3,-2.5,0.665,2.8,1.5,-10.4%,-0.7
CC(C)Cc1nnc(NC(=O)Cc2cccs2)s1,-0.4,-3.0,0.743,4.3,23.1,.,-1.4
CCCCC(O)(C(NC=O)C(=O)OC)C(F)(F)F (stereo not given),0.5,-3.7,0.72,5.6,-3.6,22.7%,0.9
COc1ccc([C@H]2CC(=O)C=C(c3cc(Cl)ccc3C)C2)cc1,-0.7,2.3,.,0.8,-2.5,.,-6.9
CN(C)/C=C/c1oc2ccc(O)cc2c1[N+](=O)[O-],-0.3,-8.7,.,.,13.9,10.7%,-1.8
CCN(C(=O)CSc1nc(C2CC2)n(-c2ccccc2)n1)C1CCS(=O)(=O)C1 (stereo not given),.,.,0.634,4.7,-7.4,4.0%,-2.1
O=C(COC(=O)c1cc(S(=O)(=O)N2CCOCC2)ccc1F)NCc1ccco1,0.9,-2.3,0.727,3.8,2.8,.,12.3
CCn1c(CNc2cccc(Cl)c2)nnc1SCc1ccccc1,0.1,-0.3,0.689,2.5,-3.6,20.3%,4.0

Continuation.
canonical_smiles,Bfl-1 A1 inh,LANA-H2A inh,E coli growth,UCH37 inh,HNF4A DNA FP,Vif A3G,B2AR ag
CCOC(=O)Cn1nc(C(F)F)c(Br)c1C,0.6,2.1,0.696,3.9,2.4,?,7.8
Cc1ccc(C(=O)OC(C(=O)O)C(OC(=O)c2ccc(C)cc2)C(=O)O)cc1 (stereo not given),-0.3,2.3,0.713,-1.9,-0.1,.,0.9
COc1ccc(CCN2CCCn3c2nc2c3c(=O)n(CC(N)=O)c(=O)n2C)cc1OC,0.2,-1.1,0.683,3.8,-4.6,-0.3%,-17.3
CN(CCC1CCCCO1)Cc1cn(C)nc1-c1ccc2c(c1)OCCO2 (stereo not given),0.4,-5.8,0.717,3.1,-5.1,-1.8%,-3.6
CCC(C)C(NC(=O)OC(C)(C)C)C(=O)NC(C(=O)N1CCCC1C(N)=O)C(C)CC (stereo not given),-0.3,2.7,0.713,-2.7,1.1,3.2%,-0.3
CCC1=NN(C(=O)c2ccc(Cl)cc2)C(O)(c2ccc(C)cc2)C1 (stereo not given),0.7,-3.2,0.69,3.7,-1.1,-2.8%,9.2
COc1ncccc1C(=O)NC1CCCc2c1cnn2-c1cc(C)cc(C)c1 (stereo not given),-0.7,-7.1,0.683,2.4,3.8,.,6.8
O=S(c1ccccc1O)S(=O)c1ccccc1O (stereo not given),.,.,0.593,0.8,-7.0,1.5%,-0.8
COc1ccc(N2CCN(C(=O)NC34CC5CC(CC(C5)C3)C4)CC2)cc1,1.8,-6.7,0.702,3.7,-2.1,7.0%,-3.6
Cc1cc(C)nc(S/C=C/C(=O)c2ccccc2F)n1,1.2,1.0,0.703,4.8,-3.3,.,29.7
O=C(COc1coc(CN2CCc3ccccc32)cc1=O)NCCc1ccccc1,0.9,1.0,0.669,2.4,-0.6,-0.7%,3.7
CC(C)[C@H](NC(=O)c1ccccc1)C(=O)OCC(=O)Nc1sccc1C(N)=O,-0.7,-7.3,0.683,2.1,0.1,1.4%,8.0
CC(C)(C)C1CCC2(CC1)NC(CO)(CO)CO2 (stereo not given),0.2,0.2,0.699,4.6,0.3,29.6%,-4.5
CCC(NC(=O)C1CCCC1)c1ccccc1 (stereo not given),0.6,2.6,0.63,3.0,-2.9,.,-0.3
CC(C)c1c(C(=O)N/N=C/c2ccc(Cl)cc2Cl)nnn1-c1nonc1N,-0.5,6.0,.,.,-2.5,.,5.4
CCOC(=O)c1ccc(NC(=S)N2CCC(C(N)=O)CC2)cc1,0.6,-1.7,.,.,-2.5,-0.9%,-8.4
CN(C)c1nc(Oc2ccc(/C=N/O)cc2)nc(N(C)C)n1,-0.1,3.2,.,.,0.4,0.1%,-16.8
CC1=C(C(=O)Nc2ccc(CC(=O)NCc3ccccc3C)cc2)SCCO1,0.5,-4.7,0.659,-2.0,-0.4,.,-1.2
NS(=O)(=O)c1cnccc1Nc1cccc(F)c1,0.2,5.9,0.629,3.8,3.6,.,-2.3
CC(=O)c1ccc(NC(=O)CCCC(=O)c2ccccc2)cc1,-0.3,-0.6,0.653,2.4,-3.1,5.9%,-7.2
CCOC(=O)C1=C(COC(=O)CCNS(=O)(=O)c2ccc(NC(C)=O)cc2)NC(=O)NC1C (stereo not given),-0.4,2.7,0.659,1.5,1.1,-1.4%,-2.6

Assay outcomes: PubChem BioAssay, several laboratories
